Compound activity deposited in PubChem by several laboratories.
VCAM-1 imaging = inhibitors of TNFa-induced VCAM-1 surface display, imaging, high-content imaging, pooled HUVEC, TNFa stimulus (AID 456) | HUVEC TNFa-induced VCAM-1 surface expression, immunofluorescence imaging; numbers were filed only for top-ranked candidate wells | inhibition, % at 5 µM, or IC50 in µM where a hit was titrated | actives 0.2% (n = 10,000);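 active means top tenth filtered wells with inhibition above zero that passed visual or statistical confirmation; inactive means the rest, including hits rejected on review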;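 further: 0% = stimulated vehicle wells and 100% = unstimulated cells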
FPR binder = human FPR ligand, with FPRL1 counter-screen | P21462 | FPR-expressing cells, fluorescent ligand binding, flow cytometry | inhibition, %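 (tested at 6.7 µM)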 | actives 0.74% (n = 24,000) | AID 440;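 further: 0% = buffer wells and 100% = receptor blocker peptide wells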
Target sequence (P21462 whole entry, looked up): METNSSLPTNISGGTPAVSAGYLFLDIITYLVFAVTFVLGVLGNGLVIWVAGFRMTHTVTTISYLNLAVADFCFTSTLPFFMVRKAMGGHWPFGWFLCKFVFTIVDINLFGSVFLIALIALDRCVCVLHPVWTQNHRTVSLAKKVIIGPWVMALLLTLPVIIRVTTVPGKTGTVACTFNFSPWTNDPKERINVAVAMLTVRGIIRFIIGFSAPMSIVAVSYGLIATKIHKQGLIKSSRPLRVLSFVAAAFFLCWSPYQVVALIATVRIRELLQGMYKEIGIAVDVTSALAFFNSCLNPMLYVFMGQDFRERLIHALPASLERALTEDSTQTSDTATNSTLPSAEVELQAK
VCAM-1 down = suppression of endothelial VCAM-1 upregulation – cell-based, plate reader, pooled HUVEC, TNFa stimulus (AID 454) | HUVEC TNFa-induced VCAM-1 surface immunofluorescence, plate reader; numbers were filed only for top-ranked candidate wells | inhibition, % at 5 µM | actives 0.2% (n = 10,000);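 active means compound among top-ranked inhibitors of TNF-induced VCAM-1 adhesion protein staining, with the hit upheld by image or statistical review; inactive means the rest, including hits rejected on review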;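 further: 0% = TNFa with vehicle and 100% = cells without TNFa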
FPRL1 ligand = binds the human formylpeptide receptor-like-1 FPRL1; P25090; FPRL1-expressing cells, fluorescent ligand binding inhibition, flow cytometry; inhibition, %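 (tested at 6.7 µM)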; actives 0.3% (n = 24,000); AID 441;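 further: 0% = buffer alone and 100% = receptor blocker peptide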
Target sequence (P25090 whole entry, looked up): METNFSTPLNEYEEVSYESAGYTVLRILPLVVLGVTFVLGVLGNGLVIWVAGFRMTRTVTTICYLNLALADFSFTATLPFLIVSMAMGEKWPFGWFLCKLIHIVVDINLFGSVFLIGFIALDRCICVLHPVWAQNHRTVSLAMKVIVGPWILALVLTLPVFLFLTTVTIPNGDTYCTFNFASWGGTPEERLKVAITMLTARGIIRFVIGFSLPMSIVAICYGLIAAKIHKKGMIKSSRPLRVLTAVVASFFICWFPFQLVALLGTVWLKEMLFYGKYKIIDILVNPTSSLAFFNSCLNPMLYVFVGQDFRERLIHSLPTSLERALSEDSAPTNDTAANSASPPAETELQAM
VCAM-1 augmentation = enhancers of VCAM-1 display on endothelial cells, imaging, high-content imaging, pooled HUVEC, TNFa stimulus (AID 457) | Pooled HUVEC, TNFa-induced VCAM-1 immunofluorescence imaging; hits of this screen are not shown here | calls only | actives 0.2% (n = 10,000);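 active means a top-ranked rise in VCAM-1 staining upheld on image or statistical review; inactive means the rest, including candidates rejected on review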;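 further: compounds tested at 5 µM in the well; cells exposed to compound for 24 hours before fixing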
* marks the source's active call; other numbers are inactive results.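 How the source made its calls, unless noted: active means mean above 30%; inconclusive means self-fluorescent; inactive means the rest.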

How did Cc1ccc(C)c(CN2CCNC2=O)c1 do in these assays?
FPR binder: 8; FPRL1 ligand: 4

What do the screens show for `CCOC(=O)c1oc2ccccc2c1NC(=O)c1ccccc1OC`?
FPR binder: 1; FPRL1 ligand: -3

Results for Cc1ccc(S(=O)(=O)N(CC(O)CN2CCCCC2)c2ccccc2)cc1 (configuration not stated) ?
FPR binder: -1; FPRL1 ligand: -5

How did Cc1ccc(NC(=O)Cc2nn(C)c(=O)c3ccccc23)cc1F do in these assays?
FPR binder: 9; FPRL1 ligand: 8

Results for COc1ccccc1Nc1nc(N)nc(-c2cc3ccccc3o2)n1 ?
VCAM-1 imaging: inactive; FPR binder: -5; VCAM-1 down: inactive; FPRL1 ligand: -8; VCAM-1 augmentation: inactive

How did CCOC(=O)c1ccccc1NC(=O)Cn1cnc2c(cnn2C(C)(C)C)c1=O do in these assays?
FPR binder: -1; FPRL1 ligand: 0

What do the screens show for `COc1cccc(CNC(=O)C2CCN(S(=O)(=O)c3cccc4cccnc34)CC2)c1`?
FPR binder: -4; FPRL1 ligand: -6

How did CC(N)C12CC3CC(C1)CC(C(C)N)(C3)C2 (configuration not stated) do in these assays?
VCAM-1 imaging: inactive; FPR binder: 8; VCAM-1 down: inactive; FPRL1 ligand: 2; VCAM-1 augmentation: inactive

How did CCn1c2ccccc2c2nc3cc(OC)c(OC)cc3nc21 do in these assays?
FPR binder: 8; FPRL1 ligand: -4

How did COc1ccccc1-c1cc(C(=O)Nc2cc(C)on2)no1 do in these assays?
FPR binder: -2; FPRL1 ligand: 0

What do the screens show for `COC(=O)C1=C(C)NC(C)=C(C(=O)OC)C1c1cc2cc(C)ccc2[nH]c1=O`?
VCAM-1 imaging: inactive; FPR binder: 0; VCAM-1 down: inactive; FPRL1 ligand: -3; VCAM-1 augmentation: inactive

What do the screens show for `Cc1nc2cc(-n3ccc(=O)cc3)ccc2n1-c1ccccc1`?
VCAM-1 imaging: inactive; FPR binder: -6; VCAM-1 down: inactive; FPRL1 ligand: 2; VCAM-1 augmentation: inactive

How did COc1ccc(S(=O)(=O)NCCCCCC(=O)NCCCN2CCOCC2)cc1 do in these assays?
FPR binder: -5; FPRL1 ligand: 3

What do the screens show for `CCN(c1cccc(C(F)(F)F)c1)S(=O)(=O)c1ccc2c(c1)CCN2C(=O)C1CC1`?
VCAM-1 imaging: inactive; FPR binder: 4; VCAM-1 down: inactive; FPRL1 ligand: 1; VCAM-1 augmentation: inactive

Results for CC(C)(C)c1nnc(NC(=O)CN2C(=O)C3C4C=CC(C4)C3C2=O)s1 (configuration not stated) ?
FPR binder: 0; FPRL1 ligand: -3

How did CCOC(=O)C(Cc1ccccc1)NC(=O)Cn1nnc(-c2ccccc2)n1 (configuration not stated) do in these assays?
FPR binder: -1; FPRL1 ligand: -2

How did O=C(NCCC1=CCCCC1)C1CCCN(S(=O)(=O)c2cccc3cccnc23)C1 (configuration not stated) do in these assays?
FPR binder: -3; FPRL1 ligand: -1

What do the screens show for `C=C1[C@@H](C)C2[C@H](Cc3ccccc3)NC(=O)[C@]23OC(=O)CC[C@H](O)CCC[C@H](C)C/C=C/[C@H]3[C@@H]1O` (some centres not stated)?
VCAM-1 imaging: inactive; FPR binder: -3; VCAM-1 down: inactive; FPRL1 ligand: -2; VCAM-1 augmentation: inactive

Results for O=C(CSc1nc2ccccc2c2nc3ccccc3n12)NCc1ccco1 ?
FPR binder: -1; FPRL1 ligand: -3

Results for CSc1ccc(-c2nnn(Cc3ccccn3)n2)cc1 ?
FPR binder: -1; FPRL1 ligand: -3

What do the screens show for `CCCn1c2ccccc2c2nnc(SCC(=O)OCC)nc21`?
VCAM-1 imaging: inactive; FPR binder: -3; VCAM-1 down: inactive; FPRL1 ligand: -8; VCAM-1 augmentation: inactive

How did O=C(Cn1nc(Cc2cccnc2)c2ccccc2c1=O)N1CCN(C(=O)c2ccco2)CC1 do in these assays?
FPR binder: -1; FPRL1 ligand: 6

What do the screens show for `O=C(CCNC(=O)Cn1ccc2ccccc2c1=O)NCCCN1CCN(c2ccccc2F)CC1`?
FPR binder: -4; FPRL1 ligand: -7

How did O=C(C1CCC1)N1CCc2cc(S(=O)(=O)Nc3ccc4c(c3)OCO4)ccc21 do in these assays?
VCAM-1 imaging: inactive; FPR binder: 4; VCAM-1 down: inactive; FPRL1 ligand: -4; VCAM-1 augmentation: inactive

Results for COc1ccc(Nc2cc(C)nc3nc(C)nn23)cc1Cl ?
FPR binder: -5; FPRL1 ligand: 4

What do the screens show for `COc1ccc(CNC(=O)c2cc(-c3ccco3)on2)cc1`?
FPR binder: 3; FPRL1 ligand: 1

What do the screens show for `COC(=O)Cc1c(C)c2ccc(OCC(=O)N3CCOCC3)cc2oc1=O`?
VCAM-1 imaging: inactive; FPR binder: 12; VCAM-1 down: inactive; FPRL1 ligand: 2; VCAM-1 augmentation: inactive

What do the screens show for `O=C(NCCN1CCN(c2ccccc2F)CC1)c1cccn2c(=O)c3ccccc3nc12`?
FPR binder: -8; FPRL1 ligand: 4

Results for CCn1cc(Cl)c(C(=O)Nc2nc3ccccc3n2CCN2CCCCC2)n1 ?
FPR binder: 6; FPRL1 ligand: 13

What do the screens show for `COc1cc(CC(=O)Oc2ccc3c(c2)OCO3)cc(OC)c1OC`?
VCAM-1 imaging: inactive; FPR binder: 3; VCAM-1 down: inactive; FPRL1 ligand: 1; VCAM-1 augmentation: inactive

2 neighbouring entries out of the list so far, quoted:
How did COc1ccccc1-c1cc(C(=O)Nc2cc(C)on2)no1 do in these assays?
FPR binder: -2; FPRL1 ligand: 0

What do the screens show for `COC(=O)C1=C(C)NC(C)=C(C(=O)OC)C1c1cc2cc(C)ccc2[nH]c1=O`?
VCAM-1 imaging: inactive; FPR binder: 0; VCAM-1 down: inactive; FPRL1 ligand: -3; VCAM-1 augmentation: inactive

Three entries already listed, arranged by molar mass, lowest first.
Results for CSc1ccc(-c2nnn(Cc3ccccn3)n2)cc1 ?
FPR binder: -1; FPRL1 ligand: -3

Results for CCn1cc(Cl)c(C(=O)Nc2nc3ccccc3n2CCN2CCCCC2)n1 ?
FPR binder: 6; FPRL1 ligand: 13

What do the screens show for `O=C(CCNC(=O)Cn1ccc2ccccc2c1=O)NCCCN1CCN(c2ccccc2F)CC1`?
FPR binder: -4; FPRL1 ligand: -7

Additional entries:
How did CCC(C)(C(=O)Nc1ccc2c(c1)OCCO2)N(C(C)=O)c1ccc(C(N)=O)cc1 (configuration not stated) do in these assays?
FPR binder: 17; FPRL1 ligand: -3

How did Cc1cccc(-n2ncc3c(N)ncnc32)c1 do in these assays?
VCAM-1 imaging: inactive; FPR binder: -7; VCAM-1 down: inactive; FPRL1 ligand: -5; VCAM-1 augmentation: inactive

Results for CCOc1ccc(CCNC(=O)CCc2nc(-c3ccc(OC)cc3)no2)cc1OCC ?
VCAM-1 imaging: inactive; FPR binder: -1; VCAM-1 down: inactive; FPRL1 ligand: 0; VCAM-1 augmentation: inactive

Results for CC1=C(C(N)=O)C(c2cccc(OCc3ccccc3)c2)n2nnnc2N1 (configuration not stated) ?
FPR binder: 0; FPRL1 ligand: 6

What do the screens show for `CCOc1ccc2c(=O)c(Oc3ccccc3)c(C)oc2c1`?
FPR binder: -7; FPRL1 ligand: -8

Results for O=C(CCN1C(=O)C2C3C=CC(C3)C2C1=O)N1CCN(c2ccccc2Cl)CC1 (configuration not stated) ?
VCAM-1 imaging: inactive; FPR binder: -1; VCAM-1 down: inactive; FPRL1 ligand: -2; VCAM-1 augmentation: inactive

Results for Nc1cc(OC(=O)c2cccs2)nn1S(=O)(=O)c1ccc(F)cc1 ?
FPR binder: 3; FPRL1 ligand: -2

How did COc1ccc(Cl)cc1N1C(=O)C2CCCN2C1c1ccc(F)cc1 (configuration not stated) do in these assays?
FPR binder: 2; FPRL1 ligand: 1

What do the screens show for `O=C1CC(c2ccco2)CC(O)=C1C=NCCN1CCNCC1` (configuration not stated)?
VCAM-1 imaging: inactive; FPR binder: 3; VCAM-1 down: inactive; FPRL1 ligand: 2; VCAM-1 augmentation: inactive

How did Cc1ccc(CCNC(=O)c2nnn(-c3cccc(C)c3)c2N)cc1 do in these assays?
FPR binder: -5; FPRL1 ligand: -6

What do the screens show for `CC1=NC(Nc2nc(C)c3ccccc3n2)=NC(C)(C)C1`?
VCAM-1 imaging: inactive; FPR binder: -5; VCAM-1 down: inactive; FPRL1 ligand: -5; VCAM-1 augmentation: inactive

Results for CC(C)C(NC(=O)C1CCCCC1)C(=O)Nc1ccc2c(c1)OCCO2 (configuration not stated) ?
FPR binder: -9; FPRL1 ligand: -4

Results for CC1=C(C(=O)OCc2ccccc2)C(c2cccnc2)n2ncnc2N1 (configuration not stated) ?
FPR binder: 5; FPRL1 ligand: 3

What do the screens show for `COc1ccc(OC)c(-c2cc(C(=O)N3CCCc4ccccc43)no2)c1`?
FPR binder: -2; FPRL1 ligand: -2

How did COc1nc(C)ccc1-c1noc(-c2ccncc2)n1 do in these assays?
VCAM-1 imaging: inactive; FPR binder: 7; VCAM-1 down: inactive; FPRL1 ligand: 0; VCAM-1 augmentation: inactive

How did N=c1sc2ccccc2n1-c1ccccc1 do in these assays?
VCAM-1 imaging: inactive; FPR binder: -2; VCAM-1 down: inactive; FPRL1 ligand: -5; VCAM-1 augmentation: inactive

How did CN(C1CCCCC1)S(=O)(=O)c1ccc2c(c1)c(=O)c(C(=O)NCCN1CCCC1)cn2C do in these assays?
FPR binder: 6; FPRL1 ligand: 2

How did COc1cc2c(=O)n(-c3ccc(C)cc3)c(=O)n(CC(=O)c3ccc4c(c3)OCO4)c2cc1OC do in these assays?
FPR binder: -2; FPRL1 ligand: 1

Results for COCCn1c(SCC(=O)Nc2nnc(C)s2)nnc1-c1c[nH]c2ccccc12 ?
VCAM-1 imaging: inactive; FPR binder: 6; VCAM-1 down: inactive; FPRL1 ligand: 1; VCAM-1 augmentation: inactive

What do the screens show for `CCOc1ccc(-n2c(Cc3cc(=O)[nH]c(=O)[nH]3)nnc2SC(C)C)cc1`?
FPR binder: -3; FPRL1 ligand: 12

How did CCOC(=O)CCC(=O)NCc1ccc2[nH]c(C)cc2c1 do in these assays?
FPR binder: -2; FPRL1 ligand: 0

How did Cc1nnc(SCC(=O)NCc2ccc3c(c2)OCO3)s1 do in these assays?
VCAM-1 imaging: inactive; FPR binder: -2; VCAM-1 down: inactive; FPRL1 ligand: 10; VCAM-1 augmentation: inactive

What do the screens show for `CC(C)c1ccc(NC(=O)CCNS(=O)(=O)c2cccc3nonc23)cc1`?
VCAM-1 imaging: inactive; FPR binder: 0; VCAM-1 down: inactive; FPRL1 ligand: -4; VCAM-1 augmentation: inactive

How did CC(CN(C)Cc1ccccc1)OC(=O)C1COc2ccccc2O1 (configuration not stated) do in these assays?
FPR binder: -3; FPRL1 ligand: -5

What do the screens show for `Cc1ccc(C2C(=O)N(C3CCC(C)CC3)CC(=O)N2C2CC2)cc1` (configuration not stated)?
FPR binder: -5; FPRL1 ligand: 4

Results for COCc1nc(-c2ccc(-c3ccc(OC)cc3)nc2OC)no1 ?
FPR binder: -1; FPRL1 ligand: 4

Results for CCOc1ccc2nc(N3CCCCCC3)sc2c1 ?
FPR binder: -1; FPRL1 ligand: -4

What do the screens show for `N#CCCN1CCN(S(=O)(=O)c2ccc(S(=O)(=O)NC3CCCC3)cc2)CC1`?
VCAM-1 imaging: inactive; FPR binder: -1; VCAM-1 down: inactive; FPRL1 ligand: -2; VCAM-1 augmentation: inactive

What do the screens show for `Cc1ccc(C)c(/C(O)=C2/C(=O)C(=O)N(CCN3CCOCC3)C2c2ccco2)c1` (configuration not stated)?
FPR binder: 11; FPRL1 ligand: -7

Results for O=C(CN1CCN(c2ncccn2)CC1)Nc1ccccc1-n1cccc1 ?
VCAM-1 imaging: inactive; FPR binder: 8; VCAM-1 down: inactive; FPRL1 ligand: 5; VCAM-1 augmentation: inactive

How did CC(C)N(CCNC(=O)c1cn(C)c2ccc(S(=O)(=O)N(C)C)cc2c1=O)Cc1ccccc1 do in these assays?
FPR binder: -2; FPRL1 ligand: 5

Results for c1ccc(C2(c3ccccc3)OCC(Cn3cncn3)O2)cc1 (configuration not stated) ?
FPR binder: -3; FPRL1 ligand: -2

What do the screens show for `CC(=O)c1cccc(NC(=O)c2cc(C)no2)c1`?
FPR binder: -3; FPRL1 ligand: 4

Results for CCC(=O)N1CCc2cc(S(=O)(=O)CCC(=O)NCc3ccc4c(c3)OCO4)ccc21 ?
FPR binder: 5; FPRL1 ligand: 0

Results for COc1ccccc1-n1c2c(cc(C(=O)N3CCC(C)CC3)c1=O)C(=O)CC(C)(C)C2 ?
FPR binder: -6; FPRL1 ligand: 2

Results for CN(CC(=O)Nc1ccccc1Cl)C(=O)COC(=O)CNC(=O)c1ccc(Br)o1 ?
VCAM-1 imaging: inactive; FPR binder: 3; VCAM-1 down: inactive; FPRL1 ligand: -1; VCAM-1 augmentation: inactive

This is a subset. The share of hits here may be higher or lower than overall.
